# RGS16-Gao = RGS16-Galphao interaction regulator (human); O15492+P09471; bead-based flow cytometry RGS16-Galphao binding, fluorescence; actives lie on both sides; binding response (% of control), % at 10 µM; 220,000 compounds, 0.38% hits;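 active = below 25% or above 175%, edge rows of some plates excepted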;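 also: Galphao activated by GDP with aluminum fluoride before binding; 100% = wells without compound and 0% = beads without RGS; some results beyond the cut were filed as inactive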
# Target sequence (O15492 whole entry, looked up): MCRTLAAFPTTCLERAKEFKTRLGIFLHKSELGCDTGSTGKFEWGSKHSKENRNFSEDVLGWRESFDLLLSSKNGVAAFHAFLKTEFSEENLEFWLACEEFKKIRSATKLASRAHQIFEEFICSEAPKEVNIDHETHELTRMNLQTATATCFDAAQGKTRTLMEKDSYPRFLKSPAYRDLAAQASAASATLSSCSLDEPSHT
# Target sequence (P09471 whole entry, looked up): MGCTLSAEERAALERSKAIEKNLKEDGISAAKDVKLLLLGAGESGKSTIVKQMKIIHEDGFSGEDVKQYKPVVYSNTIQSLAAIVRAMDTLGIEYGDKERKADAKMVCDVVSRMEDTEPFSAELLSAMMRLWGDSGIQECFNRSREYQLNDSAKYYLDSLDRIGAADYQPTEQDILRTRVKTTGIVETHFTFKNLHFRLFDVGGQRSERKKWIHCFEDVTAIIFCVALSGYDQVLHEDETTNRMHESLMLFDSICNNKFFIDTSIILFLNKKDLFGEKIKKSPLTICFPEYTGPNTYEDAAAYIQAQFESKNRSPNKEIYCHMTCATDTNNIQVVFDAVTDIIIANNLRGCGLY
# PKD1 inh = PKD1 (human) kinase inhibition; Q15139; 200,000 compounds, 0.056% hits; inhibition, %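 (about 10 µM by stock and volumes)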; PKD1 kinase fluorescence polarization assay;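 active = inhibition of 50% or more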;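 also: controls were vehicle for no effect and a reference inhibitor for full effect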
# Insulin prom inh = TRM-6 insulin promoter activity inhibition; 130,000 compounds, 0.9% hits; TRM-6 cells (human fetal islet line), insulin promoter-eGFP reporter, imaging; reporter expression induced with tamoxifen; inhibition, % at 2 µM;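 active = inhibition above the mean plus 3 SD, with well images judged a real hit on visual review, cut at about 60% in these data, passing the limit was not always enough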
# GALR2 agonist = activates the human galanin receptor 2; AID 803; O43603; activation, %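 (tested at 5 µM)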; 140,000 compounds, 0.48% hits; GALR2-expressing cells, agonist activation read-out;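 active = above mean plus 3 SD of all compounds, about 5% in these data, not always enough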;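 also: 0% = vehicle buffer wells and 100% = reference agonist at full effect; tested in CHO reporter cells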
# Target sequence (O43603 whole entry, looked up): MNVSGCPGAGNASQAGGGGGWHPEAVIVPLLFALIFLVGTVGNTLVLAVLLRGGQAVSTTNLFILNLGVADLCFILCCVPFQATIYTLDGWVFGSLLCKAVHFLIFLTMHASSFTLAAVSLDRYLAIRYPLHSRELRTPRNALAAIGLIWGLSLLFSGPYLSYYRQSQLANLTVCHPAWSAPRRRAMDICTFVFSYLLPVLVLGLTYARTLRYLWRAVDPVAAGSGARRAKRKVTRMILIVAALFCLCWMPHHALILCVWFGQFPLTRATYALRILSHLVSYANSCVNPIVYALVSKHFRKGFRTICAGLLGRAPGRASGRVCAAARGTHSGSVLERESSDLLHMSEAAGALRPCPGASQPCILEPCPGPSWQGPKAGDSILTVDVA
# HSV augment = HSV replication enhancement; AID 1956; maximum fold increase; 220,000 compounds, 0.005% hits; HSV replication augmentation in cells, fold increase;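 active = peak rise of 1.5-fold or more in the series; tested in PC3 cells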;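 also: first round at 10 µM; read as green reporter fluorescence; hits show the peak of a series up to 25 µM; 1 = signal of infected wells without compound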
# Insulin prom inh cell count = second read-out of Insulin prom inh, no call of its own (marks repeat the call); normalized cell count, %; measured here: cell count, toxicity; reference of the scale not given here;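 cells exposed to compound for 48 h; stained nuclei by imaging scaled within each plate; lower means fewer cells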
# HSV augment primary fold = also measured in HSV augment; calls as there; fold increase; compound at 10 µM; measured here: primary screen fold increase 10 uM; tested in PC3 cells;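 GFP signal in the first replicate; 1 = infected wells without compound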
# * marks the source's active call; other numbers are inactive results; i = inactive; nt = no result given; [ ] = another dose, or the depositor's remark.
# Sequence of screens – RGS16-Gao	PKD1 inh	Insulin prom inh	Insulin prom inh cell count	GALR2 agonist	HSV augment	HSV augment primary fold
- COc1ccc(C(=O)Nc2ccc(-n3nncc3C(C)(C)C)cc2)cc1
→ 132	-2	-100	57	nt	i	1
- COc1cc(OC)c(S(=O)(=O)Nc2ccccc2NC(=O)CN2CCOCC2)cc1NC(C)=O
→ 113	5	27	128	nt	i	0.95
- Cc1cccc(N2CC(C(=O)Nc3ccc(S(=O)(=O)N4CCOCC4)cc3)CC2=O)c1 (stereo not given)
→ 105	1	nt	nt	nt	i	0.95
- N#Cc1sc2nc(-c3ccccc3)cc(-c3ccco3)c2c1N
→ 86	-7	nt	nt	0.1	i	1
- CCCCC(=O)N/N=C/c1ccc(-c2ccc([N+](=O)[O-])cc2)o1
→ 107	-1	-29	131	nt	i	0.91
- O=C(CNC(=O)c1ccc(F)cc1)N/N=C/c1cc(Br)ccc1OCc1ccccc1
→ 110	-4	-19	66	1.1	i	0.89
- CCCn1c(=O)[nH]c(=O)c2c1nc(-c1ccc(OC(F)F)cc1)n2CCN1CCOCC1
→ 102	1	43	128	-3.8	i	1
- O=C(NCc1ccccn1)c1cccc(NS(=O)(=O)c2cccc(Cl)c2)c1
→ 94	-7	-57	64	-0.3	i	0.97
- CS(=O)(=O)Nc1ccc(C2=NN(C(=O)c3ccco3)C(c3ccccc3F)C2)cc1 (stereo not given)
→ 99	-6	27	107	nt	i	1
- CC1CC(C)CN(S(=O)(=O)c2cc(C(=O)O)c(Cl)s2)C1 (stereo not given)
→ 171	-17	54	136	-1.3	i	0.98
- O=S(=O)(NCC1COc2ccccc2O1)c1ccc2ccccc2c1 (stereo not given)
→ 114	-6	-15	170	-1.4	i	0.9
- COc1cc(/C=C2\SC(=Nc3ccc(O)cc3)NC2=O)cc(OC)c1O
→ 109	0	-121	76	nt	nt	nt
- COC(=O)c1c(NC(=O)COC(=O)[C@@H](NS(=O)(=O)c2cccc(Cl)c2)C(C)C)sc2c1CCC2
→ 82	12	-15	104	-1.6	i	0.94
- O=C(NC1CCCCC1)n1c(=O)oc2ccc(Cl)cc21
→ 100	-10	41	84	-1.2	i	1.1
- CC(C)c1ccc(C2C(C#N)=C(N)Oc3c2oc(CO)cc3=O)cc1 (stereo not given)
→ 108	-8	43	105	nt	i	1
- CC(=O)Nc1nc(-c2ccc3c(c2)CCN3S(C)(=O)=O)cs1
→ 110	0	nt	nt	nt	i	0.99
- CCC(c1nnc(SCC(=O)Nc2ccc(C(C)=O)cc2)n1C1CCCCC1)N(C)C (stereo not given)
→ 84	1	-49	88	-0.9	i	0.92
- CN1CCN(CC(=O)N2c3ccccc3C(C)(c3ccccc3)CC2(C)C)CC1 (stereo not given)
→ 95	-2	-21	122	-1.9	i	0.58
- COc1ccc(S(=O)(=O)N2CCOCC2)cc1NC(=O)CN(C)Cc1c(F)cccc1Cl
→ 105	0	-35	101	nt	i	0.89
- O=C(CSc1cccc[n+]1[O-])c1cc2ccccc2o1
→ 101	-5	nt	nt	-2.0	i	1
- COc1ccc(CC(=O)OCC(=O)Nc2ccc(N3CCOCC3)cc2)cc1
→ 103	nt	nt	nt	nt	i	0.98
- Cc1cc(C)cc(Nc2nc(-c3ccc(S(=O)(=O)N4CCCC4)cc3)cs2)c1
→ 104	-13	41	104	0.3	i	0.9
- CCOc1ccccc1NC(=O)N1CCC(NC(=O)c2cccc(C)c2)CC1
→ 95	21	-27	75	-2.9	i	1
- O=C1C(=O)c2ccccc2C(O)=C1CCCCl
→ 105	nt	nt	nt	nt	i	0.75
- O=C(Nc1nnc(C2CC2)s1)c1ccccn1
→ 96	1	23	180	-0.1	i	0.91
- CC1(C)CC(=O)c2cc(C(=O)N3CCCC(C)(C)C3)c(=O)n(-c3ccccc3)c2C1
→ 102	7	nt	nt	-1.2	i	1
- O=C(Cc1cccs1)Nc1ccc(NC(=O)c2ccco2)cc1
→ 96	0	0	107	-0.6	i	0.84
- O=C(Nc1cccc([N+](=O)[O-])c1)c1cccc(C(=O)Nc2cccc([N+](=O)[O-])c2)c1
→ 86	nt	nt	nt	nt	i	0.88
- CCNCCOC(c1ccccc1)c1ccccc1
→ 115	-6	-350	43	-2.0	i	0.97
- N/C(CC(=O)Nc1ccc(F)cc1)=N\O
→ 92	2	12	128	-1.9	i	1.1

# One compound at a time, from the list above.
# Results for O=C(NC1CCCCC1)n1c(=O)oc2ccc(Cl)cc21 : RGS16-Gao: 100; PKD1 inh: -10; Insulin prom inh: 41; Insulin prom inh cell count: 84; GALR2 agonist: -1.2; HSV augment: i; HSV augment primary fold: 1.1
# Results for CC(C)c1ccc(C2C(C#N)=C(N)Oc3c2oc(CO)cc3=O)cc1 (stereo not given) : RGS16-Gao: 108; PKD1 inh: -8; Insulin prom inh: 43; Insulin prom inh cell count: 105; GALR2 agonist: nt; HSV augment: i; HSV augment primary fold: 1
# Results for O=C1C(=O)c2ccccc2C(O)=C1CCCCl : RGS16-Gao: 105; PKD1 inh: nt; Insulin prom inh: nt; Insulin prom inh cell count: nt; GALR2 agonist: nt; HSV augment: i; HSV augment primary fold: 0.75

# (listing goes on)
# Sequence of screens – RGS16-Gao	PKD1 inh	Insulin prom inh	Insulin prom inh cell count	GALR2 agonist	HSV augment	HSV augment primary fold
- COc1ccc(NC(=O)CN2C(=O)c3cccc4cccc2c34)cc1OC
→ 102	-6	-39	113	-0.3	i	1
- Cn1c(SCC(=O)NNC(=O)Cc2ccccc2)nnc1-c1ccc(Cl)cc1
→ 106	3	-38	127	-3.2	i	1.1
- CCOc1ccc(CCNC(=O)CCc2c(C)nc3ncnn3c2C)cc1OCC
→ 100	-3	-16	65	-1.5	i	0.94
- NNC(=O)c1sccc1OCc1ccc(Cl)cc1
→ 100	2	nt	nt	nt	i	1
- Cc1ccc(N2CC(C(=O)Nc3ccc4c(c3)OCO4)CC2=O)cc1 (stereo not given)
→ 93	-15	nt	nt	-0.4	i	0.83
- Cc1oc(/C=N/NC(=O)CC2(C)OCCO2)cc1Br
→ 101	2	-29	128	0.0	i	0.91
- CCC1=C2CC[C@H]3C(=O)N(CC)C(=O)[C@H]3[C@H]2[C@@]2(Cc3ccccc3)C(=NCCOC)OC(=O)N2C1=O
→ 98	nt	nt	nt	nt	i	1
- CCN(CC)CC(=O)Nc1c(C)cc(C(C)(C)C)cc1C
→ 102	-1	nt	nt	-3.1	i	0.98
- O=C(N/N=C/C1CC=CCC1)c1ccc(Cl)cc1O (stereo not given)
→ 104	4	nt	nt	0.9	i	0.99
- COc1ccc(-c2nnc(SCC(=O)Nc3cc(F)ccc3C)o2)cc1
→ 110	-1	nt	nt	-2.0	i	0.95
- O=C(Cn1cnc2c(nnn2Cc2ccc(Cl)cc2)c1=O)NCC1CCCO1 (stereo not given)
→ 108	5	-244	96	-3.1	i	0.98
- COc1ccccc1-n1c(C)nnc1SCC(=O)Nc1cc(C)cc(C)c1
→ 131	4	26	85	-2.1	i	0.88
- CCOC(=O)Cn1cnc([N+](=O)[O-])n1
→ 99	7	3	135	-1.9	i	0.9
- Cc1cccc(OCC(=O)N/N=C\C=C\c2ccc3c(c2)OCO3)c1C
→ 103	-2	nt	nt	-2.0	nt	nt
- COc1cccc(CNc2ncnc3cc(Cl)ccc23)c1
→ 108	0	nt	nt	nt	i	1.1
- CCOC(=O)C1=C(N)Oc2ccc3ccccc3c2C1c1cccnc1 (stereo not given)
→ 80	-5	-333	55	0.2	i	1
- Cc1ccc(S(C)(=O)=NC(=O)NC(=O)c2c(Cl)cccc2Cl)cc1 (stereo not given)
→ 100	nt	nt	nt	nt	i	0.99
- CCCCN(CC)C(=O)Cn1c(=O)sc2ccccc21
→ 102	-1	-250	97	-3.2	i	1
- COC(=O)c1ccccc1NC(=O)NC1CCC(C)CC1 (stereo not given)
→ 105	-2	nt	nt	nt	i	0.98
- CC1(C)CCCC2=C1CC1C(=O)N(N)C(=O)C1C2 (stereo not given)
→ 102	nt	nt	nt	nt	i	1
- CCN(Cc1ccccc1)S(=O)(=O)c1cc(C(=O)NCCCN(C)C)ccc1OC
→ 95	-6	47	133	nt	i	0.9
- COc1c(C)cc(Br)cc1C(=O)NCc1cccnc1
→ 106	-6	-107	80	-0.7	i	0.94
- COCCNC(=O)C(c1ccco1)N(C(=O)Cn1nnc2ccccc21)c1ccc(C)cc1C (stereo not given)
→ 102	1	-62	74	-3.9	i	0.95
- O=C(CCOc1ccccc1)Nc1ccccc1
→ 102	-7	-24	169	-2.8	i	0.88
- Cn1c(=O)c2[nH]c(N3CCN(c4ccccc4)CC3)nc2n(C)c1=O
→ 101	3	nt	nt	nt	i	0.89
- CC(NCC(O)COCCC12CC3CC(CC(C3)C1)C2)c1ccccc1 (stereo not given)
→ 103	-1	-32	99	nt	i	0.68
- CC(=O)N(CCC(Cc1ccccc1)c1ccco1)Cc1ccco1 (stereo not given)
→ 103	nt	nt	nt	nt	i	0.95
- CC1CCC(NC(=O)C2(C)CCC(=O)N2Cc2cccnc2)CC1 (stereo not given)
→ 111	-5	nt	nt	-0.6	i	0.89
- C=CCn1c(SCC(=O)Nc2cc(C)cc(C)c2)nnc1-c1cnccn1
→ 119	-4	50	95	-0.1	i	0.93
- CCOC(=O)c1c(-c2ccc(F)cc2)csc1NC(=O)CCN1CCOCC1
→ 102	-2	nt	nt	1.2	i	0.77
- O=C(CSc1ccsc1[N+](=O)[O-])N1CCCCCC1
→ 104	-4	-15	102	nt	i	0.9
- COc1cccc(C2(O)CCN(C(=O)Cc3cccnc3)CC2)c1
→ 101	-7	-40	248	-1.0	i	1.2
- Nc1nnc(C2CCCC2)s1
→ 108	-2	0	122	-1.7	i	1.1
- O=C(COC(=O)c1cccc(C(F)(F)F)c1)NCc1ccccc1
→ 53	-5	-57	66	-1.5	i	1
- O=C1CC(c2cccc(F)c2)SC(N(c2ccccc2)c2ccccc2)=N1 (stereo not given)
→ 105	3	27	118	-1.8	i	1
- CC(C)NC(=O)c1ccc(C(C)C)cc1
→ 96	nt	nt	nt	nt	i	0.87
- O=C(CN1CCN(C(=O)c2ccco2)CC1)Nc1ccc2c(c1)OCCO2
→ 108	7	nt	nt	-0.7	i	1.1
- CC(Nc1ccccc1)c1ccncc1 (stereo not given)
→ 101	-4	nt	nt	nt	i	1
- CCOC(=O)c1cnc(SCC(=O)Nc2ccc(NC(=O)CC)c(OC)c2)nc1N
→ 100	-12	7	114	-2.6	i	0.86
- Cc1cc(=O)oc(C)c1C(=O)Nc1cccc2nonc12
→ 99	0	7	62	-1.6	i	1.1
- CC(=O)c1cccc(N2C(=O)C3C4CCC(C4=C(C)C)C3C2=O)c1 (stereo not given)
→ 105	-8	38	149	-0.3	i	1.1
- CCn1c(NCc2ccco2)nc2ccccc21
→ 100	-2	28	68	nt	i	1.3
- Cc1cccc(OCCCCc2c(C)n[nH]c2C)c1C
→ 107	-9	0	95	-1.4	i	1.1
- CSc1ncc(F)c(N(CCO)CCO)n1
→ 96	-9	-156	141	0.4	i	1.1
- COc1ccc(Nc2ncccc2C(=O)Nc2ccccc2)cc1
→ 91	-2	50	154	-0.3	i	0.9
- Cc1noc(C)c1COC(=O)c1ccccc1Oc1ccccc1
→ 93	-8	-8	161	-2.3	i	0.95
- CC1CCCCN1C(=O)N[C@@H](Cc1ccccc1)C(=O)O (stereo not given in full)
→ 103	-12	0	164	-1.5	i	0.82
- O=C(CCS(=O)(=O)c1ccccc1)Nc1ccccc1-c1nc2ccccc2s1
→ 98	3	nt	nt	-0.1	i	0.82
- Cc1nn(C)c(C)c1/C=C/C(=O)c1ccc(Cl)cc1Cl
→ 104	5	26	70	nt	i	1
- S=C(Nc1cccc(Cl)c1Cl)N1CCC2(CC1)OCCO2
→ 88	-8	44	99	nt	i	0.98
- O=C(NCC1c2ccccc2CCN1C(=O)CN1C(=O)c2ccccc2C1=O)C1CCCCC1 (stereo not given)
→ 100	-3	23	113	-1.1	i	1
- COc1cccc(/C=N/Nc2nccnc2Cl)c1O
→ 93	-3	0	39	nt	i	0.79
- CCCCc1cc(=O)oc2cc(C)c(CN3CCCC3)c(O)c12
→ 175*[activator]	-6	-203	156	-2.1	i	0.94
- CCCn1c(CN(Cc2ccccc2)Cc2ccccc2)nc2c1c(=O)n(C)c(=O)n2C
→ 99	-3	43	116	0.0	i	0.84
- Cc1ccc2nc(NC(=O)CSc3nnc(C)c(=O)n3N)sc2c1
→ 100	-14	25	150	1.1	i	0.96
- CC1Cc2ccccc2N1C(=O)c1ccc(N2CCCC2)c([N+](=O)[O-])c1 (stereo not given)
→ 98	-1	nt	nt	-0.6	i	0.82
- CCOC(=O)c1c(C)oc2c(CN3CCN(C)CC3)c(Br)c(OC)c(O)c12
→ 108	4	21	151	-0.2	i	0.75

# Screens (PubChem)
